Bioassay records deposited in PubChem by National Center for Advancing Translational Sciences (NCATS).
FH mod = Identification of activators of human fumarate hydratase by quantitative high-throughput screening; Fumarate hydratase, mitochondrial (Homo sapiens), P07954; FH coupled MDH/diaphorase resazurin fluorescence, 15 min; Potency, µM (doses to about 79.9 µM), for the others: top-dose activity change, negative = inhibition, hits mostly inhibitors; hit rate 0.22% among 54,000; AID 1347055, 2019; note: potency is the fitted concentration of half-maximal effect; % is set by controls: 0 for no effect and ±100 for the full control effect; the screen sought activators but most active calls are inhibition curves; nearly all actives have a fitted effect of over 45% in size
PTAP-TSG101 blk = qHTS Validation Assay for Inhibitors of HIV-1 Budding by Blocking the Interaction of PTAP/TSG101: Sytravon Library Screen; Tumor susceptibility gene 101 protein (Homo sapiens), Q99816; Fluorescence polarization, FITC-PTAP peptide/Tsg101, 20 min; Potency, µM (doses to about 115 µM), without a hit: at the highest dose activity change, negative = inhibition, hits mostly inhibitors; 44,000 tested, under 10 active; AID 1347069, 2019; note: potency is the fitted concentration of half-maximal effect; 0% is about no effect
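qHTS FP binding, 20 min r.t.: 10 uM Tsg101 domain + 50 nM FITC-PTAP peptide, pH 7.5 HEPES buffer with TCEP and EDTA.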
p53null 32C kill = qHTS Screen for Compounds that Selectively Target Cancer Cells with p53 Mutations: Cytotoxicity of p53 Null Cells at the Permissive Temperature. hit rate 0.62% among 55,000. Potency, µM (doses to about 46.1 µM), without a hit: at the highest dose activity change, negative = cytotoxicity, actives largely listed as cytotoxic. H1299-neo p53 null cells, ATP luminescence, 24 h, 32C;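 note: potency is the fitted concentration of half-maximal effect; 0% = DMSO only and -100% = full killing by 100 µM tamoxifen; nearly all actives have a fitted effect of over 55% in size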
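H1299-neo (p53-null) cells, 600/well, were pre-incubated overnight at 37C, then exposed to compounds at up to 46 uM for 24 hr at 32C. Viability was measured as ATP content by luminescence, and AC50 values came from Hill fits.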
p53null 39C kill = qHTS Screen for Compounds that Selectively Target Cancer Cells with p53 Mutations: Cytotoxicity of p53 Null Cells at the Nonpermissive Temperature; H1299 p53-null (neo) cells, 39C, ATPlite viability, 24 h; Potency, µM (titrated, usually from 46.1 µM), for the others: at the highest dose activity, negative = cell killing, actives largely listed as cytotoxic; hit rate 0.97% among 55,000;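 note: potency is the fitted concentration of half-maximal effect; 0% = DMSO only and -100% = full killing by 100 µM tamoxifen; nearly all actives have a fitted effect of over 50% in size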
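Following overnight plating at 37C (600 cells/well), H1299-neo or H1299-p53A138V cells are dosed up to 46 uM. Incubation lasts 24 hr at 39C before ATP detection.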
GALK inhibitor = qHTS Assay for Inhibitors of Human Galactokinase (GALK): NCGC Sytravon Library Screen. recombinant GALK, Kinase-Glo ATP luminescence, 1 h. Potency, µM (doses to about 57.5 µM), for inactives: at the top dose activity, negative = inhibition, usual class: inhibitors. 44,000 tested, under 10 active;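 note: plate controls were full GALK reaction for no effect and reaction lacking GALK for full effect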
Target sequence (P51570 whole entry, looked up): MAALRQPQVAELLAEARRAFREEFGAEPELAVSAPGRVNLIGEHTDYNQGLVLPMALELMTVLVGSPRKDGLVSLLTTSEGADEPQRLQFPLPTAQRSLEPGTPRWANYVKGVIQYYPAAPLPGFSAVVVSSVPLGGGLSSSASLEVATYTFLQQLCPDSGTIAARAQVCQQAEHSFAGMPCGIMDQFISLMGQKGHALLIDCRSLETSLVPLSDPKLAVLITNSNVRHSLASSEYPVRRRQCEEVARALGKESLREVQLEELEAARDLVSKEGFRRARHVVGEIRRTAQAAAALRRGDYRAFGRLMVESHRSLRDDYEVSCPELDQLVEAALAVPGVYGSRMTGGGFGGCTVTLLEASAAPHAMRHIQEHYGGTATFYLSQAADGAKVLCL
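Luminescent ATP-depletion readout (Kinase-Glo Plus, 10 min) after 1 h RT reaction of 5 nM GALK, 35 uM ATP, 100 uM galactose, pH 8.0 HEPES buffer. Decreased kinase activity scored as inhibition.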
B2AR arrestin ag = qHTS assay of beta-arrestin-biased ligands of beta2-adrenergic receptor: NCGC Sytravon Library Screen; HTLA Tango cells, beta-arrestin recruitment, luciferase luminescence, 18 h; Potency, µM (top dose mostly 46.1 µM), inactives show at the top dose activation, usual class: activators; 44,000 tested, under 10 active;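 note: potency is the fitted concentration of half-maximal effect; 0% = DMSO and full agonism = EC100 isoproterenol or metaproterenol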
Target sequence (P07550 whole entry, looked up): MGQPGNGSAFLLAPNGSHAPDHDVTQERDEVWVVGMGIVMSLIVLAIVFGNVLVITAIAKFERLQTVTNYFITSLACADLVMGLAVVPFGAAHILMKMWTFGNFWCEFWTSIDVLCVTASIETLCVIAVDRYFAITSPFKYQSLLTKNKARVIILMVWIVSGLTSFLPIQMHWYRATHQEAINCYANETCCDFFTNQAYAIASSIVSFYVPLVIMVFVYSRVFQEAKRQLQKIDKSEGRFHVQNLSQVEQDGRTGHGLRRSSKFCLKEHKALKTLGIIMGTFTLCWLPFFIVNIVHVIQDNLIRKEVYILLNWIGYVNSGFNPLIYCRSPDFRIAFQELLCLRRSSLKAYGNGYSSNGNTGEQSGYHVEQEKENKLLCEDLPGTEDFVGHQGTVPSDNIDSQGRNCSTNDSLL
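First, Tango cells carrying beta2-AR and beta-arrestin fusions received compound up to 46 microM. After 18 hr at 37 degrees C, luciferase substrate was added for 15 minutes, then luminescence gave %Activity for curve fitting.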
* hit, by the source's call; ? = inconclusive; · = not tested or not shown; [ ] = another dose, or the depositor's remark. Calls come from the whole dose curve; as a rule, active = well fitted curve in the direction sought with a large enough effect; inconclusive = small, poorly fitted or top-dose-only effect, or another doubt; inactive = no such curve, though single readings can be large; an effect the other way counts as inactive or inconclusive.

SMILES | FH mod | PTAP-TSG101 blk | p53null 32C kill | p53null 39C kill | GALK inhibitor | B2AR arrestin ag
COc1ccc2c(c1)c(=O)c(C(=O)c1ccc(Cl)cc1)cn2CC(=O)Nc1ccc2c(c1)OCO2 | -1% | -1% | 1% | -15% | 0% | 0%
Cc1ccccc1C(=O)NC1(C(F)(F)F)C(=O)Nc2c1c(=O)[nH]c(=O)n2-c1ccc(F)cc1 (stereo not drawn) | -18% | 0% | -4% | -14% | 1% | 0%
COc1ccc(-c2cc(C(C)=O)c(C)n2CCC(=O)NCc2ccc(C)cc2)cc1 | -7% | -4% | -1% | 2% | 1% | 0%
CC(C)Cn1cc(NC(=O)NCc2ccccc2)c2ccccc2c1=O | ? | 2% | -4% | 9% | 0% | 0%
Cn1c(Nc2ccc(Cl)cc2)cc(=O)n(C)c1=O | 9% | -1% | 3% | -12% | 0% | 0%
CCc1ccc(S(=O)(=O)c2cn(CC(=O)Nc3cccc(C)c3)c3ccc(Cl)cc3c2=O)cc1 | -5% | -4% | 3% | -11% | 1% | -1%
CCCCN(CCCNC(=O)c1c(C)oc2nc[nH]c(=O)c12)Cc1ccccc1 | -8% | -6% | -8% | -5% | 0% | -2%
COc1ccc(CCN2C(=O)c3[nH]nc(-c4ccccc4O)c3C2c2cccc(OC)c2)cc1 (stereo not drawn) | ? | 2% | 6% | 19% | 3% | ?
COc1ccc(OC)c(C(=O)CN2C(=O)N(c3cc(C)cc(C)c3)S(=O)(=O)c3ccccc32)c1 | 18% | 0% | -3% | 26% | 0% | -1%
CC(C)c1ccc(Cn2c(COc3ccccc3)nc3ccccc32)cc1 | ? | -10% | 42%[activator] | 35%[activator] | -1% | 0%
CCN(CC)CCSC(=O)C(c1ccccc1)c1ccccc1 | 5%[53.3 µM] | · | · | · | · | ·
CCOc1ccc(CCNC(=O)Cn2nnc(-c3ccc(OC)c(OC)c3)n2)cc1OCC | 1% | -1% | ? | -17% | -1% | 0%
O=C(OCC1=CC(O)C2C=CO[C@@H](O[C@@H]3O[C@H](CO)[C@@H](O)[C@H](O)[C@H]3O)C12)c1ccccc1 (stereo partly drawn) | -1%[53.3 µM] | · | · | · | · | ·
CC(C)c1ccc(S(=O)(=O)c2cnc(SCC(=O)Nc3ccc(F)cc3F)nc2N)cc1 | -5% | -1% | -9% | -19% | -3% | 0%
CCOc1ccccc1C(=O)NC1(C(F)(F)F)C(=O)Nc2c1c(=O)[nH]c(=O)n2-c1ccc(F)cc1 (stereo not drawn) | -3% | -9% | -3% | -21% | 5% | 0%
CCS(=O)(=O)N1CCCc2cc(C(=O)Nc3cccc(C(C)=O)c3)ccc21 | 0% | -2% | -5% | 6% | 1% | 0%
COc1cc(NC(=O)CN2C(=O)C(c3ccc(C)cc3)=NC23CCCCC3)cc(OC)c1 | -28% | -6% | 18% | -12% | 8% | -2%
Cc1ccc(N2C(=O)[C@@H]3CSC(c4ccc(F)cc4)N3C2=O)cc1 (stereo partly drawn) | -6% | 2% | 12% | 3% | -1% | 1%
COc1ccc(CNC(=O)CCCn2c(SCC(N)=O)nc3cc4c(cc3c2=O)OCO4)cc1 | 6% | -1% | 10% | 6% | 0% | -3%
CC1CCCCN1CCCNC(=O)c1ccc2c(c1)sc1nc(-c3ccc(F)cc3)cn12 (stereo not drawn) | 1% | -1% | 7% | -5% | 0% | 0%
Clc1ccc(CCNc2nc3cc(Cl)c(Cl)cc3n3cnnc23)cc1 | 0% | -9% | -6% | -12% | 3% | -1%
CCN(CC)C(=O)c1sc2c(c1C)c(=O)n(Cc1ccccc1)c(=O)n2Cc1ccccc1C | ? | -3% | 8% | 48%[activator] | 0% | -1%
CC(C)Oc1ccc(C(=O)Nc2ccc3c(c2)CCCN3C(=O)c2cccs2)cc1 | -12% | 0% | 6% | 13% | -4% | -1%
CC(C)c1ccc(NC(=O)Cn2cc(S(=O)(=O)Cc3ccccc3Cl)c3ccccc32)cc1 | ? | -3% | -1% | -18% | 4% | 0%
COc1ccc(C2=NC(C)(C)N(CC(=O)Nc3ccc(F)c(F)c3)C2=O)cc1 | -2% | -2% | 10% | -17% | -4% | -3%
CC(C)c1ccc(/C=C(\C#N)c2nc(-c3ccc(O)cc3)cs2)cc1 | ? | 7% | ? | ? | ? | 0%
COc1ccc(-c2csc3ncnc(Nc4ccccc4)c23)cc1 | ? | -1% | -4% | 6% | -2% | 0%
Cc1cc(F)ccc1NC(=O)CCSc1nc(-c2ccco2)cc(C(F)(F)F)n1 | -16% | 4% | -7% | -27% | 5% | 1%
CCOc1ccc(NC(=O)CSc2nc(-c3cccs3)cc(C(F)(F)F)c2C#N)cc1 | 3% | 2% | 1% | -7% | 4% | -1%
Cc1cc(F)ccc1S(=O)(=O)Nc1ccc2c(c1)CCCN2C(=O)c1cccs1 | ? | -4% | 6% | 5% | -7% | 0%
CCOc1ccc(-c2csc3ncnc(Nc4cccc(O)c4)c23)cc1 | ? | 0% | -4% | -7% | 2% | 0%
COc1ccc(Cl)cc1NC(=O)Cn1c(=O)c(-c2ccccc2NC(C)=O)nc2ccccc21 | -7% | 2% | 2% | 0% | 3% | -2%
CC(=O)c1ccc(NC(=O)c2ccc(-c3ccc(Cl)cc3)o2)cc1 | -11% | 5% | ? | ? | 1% | 1%
COc1ccc(C2NC(=O)N(C)C3=C2C(=O)N(c2cccc(C(=O)O)c2)C3)cc1 (stereo not drawn) | -3% | -12% | -26% | 8% | 0% | 0%
CCC(=O)N1c2ccccc2CC1C(=O)NCCN1CCN(c2cccc(C)c2C)CC1 (stereo not drawn) | -8% | -5% | -8% | 0% | 2% | -1%
Cc1c2cnn(-c3ccccc3)c(=O)c2c(C)n1CC(=O)N1CCN(c2cccc(Cl)c2)CC1 | -25% | -4% | 15% | -17% | -2% | -3%
COc1ccc(OC)c(NC(=O)c2ccc3nc(C(C)C)oc3c2)c1 | ? | 0% | -6% | -15% | -4% | -1%
Cc1ccc(/C=C(\C#N)c2nc(-c3ccc(-c4ccccc4)cc3)cs2)cc1 | -18% | 1% | -9% | -11% | 0% | 0%
COc1ccc(-c2nc3n(n2)C(c2ccccc2)C(C(=O)Nc2cccnc2)=C(C)N3)cc1 (stereo not drawn) | 0% | -2% | 17% | 12% | -2% | 2%
COc1ccccc1-c1cc2nc(C)c(CCC(=O)NC3CCCCC3)c(C)n2n1 | -9% | 2% | -9% | -21% | 0% | 0%

Whole records as entered above:
Entry for `COc1ccc(Cl)cc1NC(=O)Cn1c(=O)c(-c2ccccc2NC(C)=O)nc2ccccc21` → FH mod: -7%; PTAP-TSG101 blk: 2%; p53null 32C kill: 2%; p53null 39C kill: 0%; GALK inhibitor: 3%; B2AR arrestin ag: -2%
Entry for `CCC(=O)N1c2ccccc2CC1C(=O)NCCN1CCN(c2cccc(C)c2C)CC1` (stereo not drawn) → FH mod: -8%; PTAP-TSG101 blk: -5%; p53null 32C kill: -8%; p53null 39C kill: 0%; GALK inhibitor: 2%; B2AR arrestin ag: -1%

Going on with the list.
SMILES | FH mod | PTAP-TSG101 blk | p53null 32C kill | p53null 39C kill | GALK inhibitor | B2AR arrestin ag
CCc1cccc(NC(=O)c2cc3c(=O)n(Cc4ccc(OC)cc4)ccc3nc2C)c1 | ? | 0% | 9% | 4% | 2% | 0%
CC1CCc2c(sc(NC(=O)c3ccc(Cl)cc3Cl)c2C#N)C1 (stereo not drawn) | -8% | -1% | -3% | -18% | 2% | 0%
COc1cccc(Nc2sc(C(=O)c3ccc(F)cc3)c(N)c2C(=O)NCc2ccc(C)cc2)c1 | 17% | 0% | 1% | 12% | -5% | -2%
CCN(c1ccccc1)S(=O)(=O)c1ccc(NC(=O)c2cc(=O)c3c(C)cc(C)cc3o2)cc1 | 1% | -3% | -1% | -9% | -2% | 0%
CCCCCSc1nnc2c(n1)[nH]c1c(C)cccc12 | -6% | -6% | -25% | -15% | 1% | -2%
CCCOc1cccc(C2c3c(-c4ccccc4O)n[nH]c3C(=O)N2Cc2ccco2)c1 (stereo not drawn) | ? | -10% | 44%[activator] | 18µM* | 8% | 0%
CN(C(=O)CSc1nc2c(c(=O)[nH]1)CCCC2)c1ccccc1 | -11% | -2% | -5% | -10% | 2% | -3%
CCOc1ccc(OCC)c(NC(=O)c2cnc3c(-c4ccccc4)c(C)nn3c2C)c1 | -4% | 7% | 7% | 3% | 1% | 1%
COc1ccc(CNC(=O)C(CC(C)C)N2Cc3ccccc3C2=O)cc1 (stereo not drawn) | -7% | 1% | -9% | -7% | 1% | 0%
Cc1nc2nc(SCC(=O)O)nn2c(C)c1Cc1c(F)cccc1Cl | -7% | -3% | -2% | 0% | 0% | -2%
CCc1cccc(C)c1NC(=O)c1cc(S(=O)(=O)N(C)Cc2ccccc2)ccc1F | -14% | -1% | -2% | 3% | 3% | 0%
Cc1cccc(C(=O)Nc2ccc(OCc3cc(=O)n4ccc(C)cc4n3)cc2)c1 | -12% | -6% | -7% | -14% | 0% | 1%
CCC(Cn1nnc2ccccc2c1=O)NC(=O)Nc1ccc(C)cc1 (stereo not drawn) | -9% | -4% | -3% | -7% | -4% | -2%
Cc1ccc(N2C(=O)[C@@H]3CSC(c4ccc(C(F)(F)F)cc4)N3C2=O)cc1 (stereo partly drawn) | -10% | 0% | -17% | -2% | 7% | 7%
Cc1ccccc1C(=O)N(Cc1sccc1C)C1CCS(=O)(=O)C1 (stereo not drawn) | -1% | -2% | -3% | -3% | 3% | -1%
Cc1nc2ccn(Cc3cccnc3)c(=O)c2cc1C(=O)Nc1ccc(F)cc1F | 2% | 0% | 0% | -10% | 2% | 0%
CCOCCCn1c(=N)c(C(=O)NC2CCCCC2)cc2c(=O)n3ccccc3nc21 | -1% | 0% | 0% | -8% | 0% | -2%
Cc1ccc(CNC(=O)c2cnc3c(-c4ccccc4)c(C)nn3c2C)o1 | -1% | -2% | -7% | -26% | 0% | 0%
N#Cc1c(C(F)(F)F)cc(-c2cccs2)nc1SCc1ccccc1F | -4% | 1% | 7% | -27% | 0% | 1%
CCCCN1CC(c2nc3ccccc3n2CCCCOc2c(C)cccc2C)CC1=O (stereo not drawn) | -35% | 2% | 5% | 9% | 3% | 1%
CCN1CCN(C(=O)c2ccc3c(c2)N(Cc2cccc(F)c2)C(=O)c2ccccc2S3)CC1 | -16% | -1% | -4% | -1% | -1% | 9%
CC(=O)c1cccc(NC(=O)c2ccc(Cl)c(S(=O)(=O)N3CCOCC3)c2)c1 | -6% | 2% | -2% | -10% | 0% | 1%

Part of the list above in order of molar mass, rising:
SMILES | FH mod | PTAP-TSG101 blk | p53null 32C kill | p53null 39C kill | GALK inhibitor | B2AR arrestin ag
CCCCCSc1nnc2c(n1)[nH]c1c(C)cccc12 | -6% | -6% | -25% | -15% | 1% | -2%
Cc1cccc(C(=O)Nc2ccc(OCc3cc(=O)n4ccc(C)cc4n3)cc2)c1 | -12% | -6% | -7% | -14% | 0% | 1%
CCCCN1CC(c2nc3ccccc3n2CCCCOc2c(C)cccc2C)CC1=O (stereo not drawn) | -35% | 2% | 5% | 9% | 3% | 1%
CCc1cccc(C)c1NC(=O)c1cc(S(=O)(=O)N(C)Cc2ccccc2)ccc1F | -14% | -1% | -2% | 3% | 3% | 0%

The list is partial; the hit share may differ from the screen's.
